# Bioassay records (PubChem BioAssay)
# ALR inh = inhibitors of human ALR sulfhydryl oxidase, primary screen, biochemical, H2O2 detection, HRP-luminol luminescence, single point | FAD-linked sulfhydryl oxidase ALR (Homo sapiens), P55789 | purified ALR, DTT oxidation | inhibition, % (no concentration beside the values) | actives 3.8% (n = 290,000);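 active = mean and each replicate at 75% or more; inconclusive = only one of the two met; inactive = neither met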;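 note: stock transfer was 7.5 nL into about 7.5 µL; 0% = neutral wells and 100% = wells with inactivated enzyme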
# Calb FLC = C. albicans growth inhibition with fluconazole, primary screen, CaCi-2 strain, Alamar Blue fluorescence. C. albicans CaCi-2 (fluconazole-resistant clinical isolate) + fluconazole, 48 h. AID 1979, 2009. actives 0.57% (n = 300,000). growth inhibition, % (no concentration beside the values);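 active = most replicates above 75%; inconclusive = exactly half above 75%; inactive = most below 75%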;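 note: all wells also contain fluconazole at 8 µg/ml as a sub-toxic cotreatment; 0% = median of DMSO wells and 100% = median of geldanamycin control wells; wells of about 8 µL received 7.5 nL stock; the first replicate is given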
# rRNA inh HTS = reduced GFP signal of wild-type E. coli, primary screen, bacterial rRNA inhibitor project, GFP/RFP fluorescence, OD600, single point. actives 1.6% (n = 350,000). E. coli WT GFP vs humanized-ribosome RFP mutants, 24 h; hits give low values; DMSO median 0, no signal -100. AID 720706, 2013. GFP signal change (wild-type ribosome), % (no concentration beside the values);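 active = significant combined selectivity score with lowered wild-type GFP, culture density cut under 30%, mutant RFP and density less affected; inactive = any of these conditions unmet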; note: one replicate is shown; some compounds called inactive have numbers as strong as hits
# Beta cell apopt = inhibitors of cytokine-induced beta cell apoptosis, primary screen, luminescence | INS-1E cytokine-induced death, ATP luminescence, 48 h; percent of positive-control rescue, neutral wells zero | actives 0.8% (n = 300,000) | protection from apoptosis, % (no concentration beside the values);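 active = all replicates at 75% or more, or half of them and the mean; inconclusive = half reach 75% but not the mean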;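 note: 0% = cytokine-treated negative control wells and 100% = positive control rescue; higher means more ATP so stronger rescue from cytokine killing; wells of about 40 µL received 100 nL stock; the first replicate is given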
# LANA-H2A inh = blockers of LANA interaction with H2A/H2B – biochemical, FP readout, HTS, primary screen; cell-free LANA-H2A/H2B peptide, fluorescence polarization; inhibition, % (concentration not given with the values); actives 0.6% (n = 320,000); in the data active = inhibition mostly above about 10%, no sharp cut-off; inactive = mostly below about 6.7%;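 note: stock transfer was 7.5 nL into about 10 µL; 0% = median of vehicle wells and 100% = median of positive control wells; one replicate is shown; the record names a cut of 25% in any replicate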
# Target sequence (Q9QR71 whole entry, looked up): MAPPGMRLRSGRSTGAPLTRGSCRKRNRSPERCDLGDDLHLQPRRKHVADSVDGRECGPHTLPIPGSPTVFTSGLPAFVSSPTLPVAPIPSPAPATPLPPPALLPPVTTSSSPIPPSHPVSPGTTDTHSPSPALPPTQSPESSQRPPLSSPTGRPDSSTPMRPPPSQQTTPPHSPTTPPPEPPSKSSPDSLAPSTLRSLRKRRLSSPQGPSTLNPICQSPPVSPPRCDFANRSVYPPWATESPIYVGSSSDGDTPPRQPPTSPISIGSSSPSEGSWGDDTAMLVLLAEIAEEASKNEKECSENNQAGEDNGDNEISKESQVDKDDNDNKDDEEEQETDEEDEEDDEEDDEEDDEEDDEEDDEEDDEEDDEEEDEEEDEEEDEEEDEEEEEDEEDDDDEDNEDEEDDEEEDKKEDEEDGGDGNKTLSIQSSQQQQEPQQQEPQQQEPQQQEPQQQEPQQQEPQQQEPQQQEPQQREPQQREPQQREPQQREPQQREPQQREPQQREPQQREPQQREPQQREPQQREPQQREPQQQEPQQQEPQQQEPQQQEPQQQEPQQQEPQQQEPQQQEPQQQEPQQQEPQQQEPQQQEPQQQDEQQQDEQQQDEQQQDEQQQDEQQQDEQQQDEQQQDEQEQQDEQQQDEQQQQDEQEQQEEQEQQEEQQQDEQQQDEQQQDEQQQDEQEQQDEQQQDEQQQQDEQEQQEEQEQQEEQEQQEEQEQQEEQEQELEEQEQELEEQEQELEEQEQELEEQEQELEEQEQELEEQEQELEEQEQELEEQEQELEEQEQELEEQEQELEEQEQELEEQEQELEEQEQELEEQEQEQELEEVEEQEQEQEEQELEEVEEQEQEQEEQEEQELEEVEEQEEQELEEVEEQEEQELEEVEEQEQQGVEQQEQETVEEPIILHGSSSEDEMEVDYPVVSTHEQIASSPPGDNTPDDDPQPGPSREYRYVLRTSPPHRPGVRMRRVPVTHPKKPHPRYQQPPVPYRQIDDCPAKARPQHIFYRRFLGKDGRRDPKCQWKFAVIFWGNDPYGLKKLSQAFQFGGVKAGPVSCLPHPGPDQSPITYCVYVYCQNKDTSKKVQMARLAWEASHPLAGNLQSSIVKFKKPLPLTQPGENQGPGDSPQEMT
# A1 inh = caspase 3/7 activation in MEF A1-2A-BIM cells, primary screen, A1 inhibitor project, cell-based, luminescence, HTS. Caspase-Glo 3/7 luminescence, 3 h; percent of clofoctol response, vehicle zero. caspase activation, % (no concentration beside the values). actives 0.066% (n = 330,000);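 active = over half of replicate activation scores above 10%, or exactly half above 10 with the replicate mean above 10; inconclusive = replicate mean below 10 yet half the replicates above 10; inactive = over half of replicates below 10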;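 note: wells of about 30 µL received 50 nL stock; many hits fall short of the cut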
# B2AR ag = beta2AR agonists driving receptor internalization, primary screen, cell-based, FAP fluorogen, flow cytometry | Beta-2 adrenergic receptor (Homo sapiens), P07550 | Am2.2-beta2AR cells; reference of the scale not given here | response, % (no concentration beside the values) | actives 0.43% (n = 340,000);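 active = response above a set limit, near 3 SD of response in nonfluorescent compounds, cut at about 42% in these data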;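 note: stock transfer was 100 nL into about 11 µL; a reference agonist was the positive control; negative values mostly stem from fluorescent compounds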
# T cruzi repl = inhibitors of intracellular T. cruzi growth, primary screen, luminescence, NIH3T3 host cells; T. cruzi beta-gal in NIH3T3, 90 h; inhibition, % (test concentration not listed); actives 1.4% (n = 300,000); AID 1885, 2009;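 active = mean inhibition across valid replicates above about 55%, limit read from the data; inconclusive = mean below that limit but half or more replicates reach it; inactive = mean below it, under half of replicates reach it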;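 note: signal also drops with host cell toxicity which is not excluded here; 0% = plate median of DMSO wells and 100% = zero luminescence signal; higher percent means less beta-gal luminescence so fewer parasites; stock transfer was 50 nL into about 50 µL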
# rRNA inh HTS OD600 = also measured in rRNA inh HTS; calls as there; OD600 change, %; measured here: OD600 growth;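 optical density of the mix in the first replicate; 0 = DMSO median and -100 = no signal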
# rRNA inh HTS RFP = further read-out of rRNA inh HTS, marked with its call; RFP signal change, %; measured here: RFP humanized mutant strains;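 first replicate; 0 = DMSO median and -100 = no signal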
# * = called active by the depositor; u = inconclusive; x = not tested or not shown. Only part of the results is shown. The share of hits here may be higher or lower than overall.
SMILES,ALR inh,Calb FLC,rRNA inh HTS,rRNA inh HTS OD600,rRNA inh HTS RFP,Beta cell apopt,LANA-H2A inh,A1 inh,B2AR ag,T cruzi repl
COc1ccc(NC(=O)N/C=C/c2ccco2)cc1,-4,-7,6,17,4.7,x,-2.8,-0.6,-1,-6
CC(C)(C)c1ccc(NC(=O)Cn2cnc3cc([N+](=O)[O-])ccc3c2=O)cc1,3,2,7,4,-1.5,x,2.5,0.8,-5,72*
COc1cc2c(cc1OC)CN(C(=O)Cc1ccc(OC)c(S(=O)(=O)N3CCOCC3)c1)CC2,-5,0,x,x,x,-7,-1.4,0.0,-2,5
CC(C)(C)OC(=O)N1CCC(c2c(C(=O)N3CCN(C4CCCCC4)CC3)cnn2-c2ccc(F)cc2)CC1,2,2,3,-4,-1.2,-8,-1.5,-1.3,-4,6
CNC(=O)CS(=O)(=O)CC(=O)Nc1cc(OC(C)C)c(Cl)cc1Cl,-13,u,6,8,-1.6,-5,1.7,0.3,1,8
Cc1ccc(-c2c(C(=O)O)c(C(=O)O)c3n2CCC3)cc1,3,x,15,3,-0.7,-1,6.2,-0.1,-4,-18
COc1ccccc1OC(C)c1nnc(SCC(=O)Nc2c(C)n(C)n(-c3ccccc3)c2=O)n1-c1ccccc1 (configuration not stated),-7,0,1,2,-8.8,-5,-6.6,0.9,-4,-9
COc1cc(O)c(C(C)=O)c(CC(=O)O)c1,4,-2,x,x,x,-2,1.8,1.4,-4,-6
Cn1nc(C(=O)NNC(=O)c2ccccc2F)c2ccccc2c1=O,0,x,2,6,0.5,-6,1.6,-0.8,-3,x
COc1ccccc1NC(=O)c1c(N=Cc2cccc([N+](=O)[O-])c2)cnn1C,-2,0,22,7,0.5,12,-1.6,-1.0,-6,11
CCOc1ccc(C(O)c2nccn2C)cc1 (configuration not stated),1,-7,x,x,x,-15,3.9,0.8,5,-1
COc1ccc(C(=O)N/C(=C/c2cccs2)C(=O)NC(C)(C)C)cc1OC,4,-14,21,13,2.8,-5,1.1,1.1,7,0
COc1cccc(-c2noc(N)c2C#N)c1,1,44,x,x,x,-4,4.8,0.4,0,-18
CCCCCC1(C(=O)OCC)CC(CSC(=N)N)OC1=O (configuration not stated),2,u,x,x,x,-14,-7.4,0.4,9,1
Cc1noc(NS(=O)(=O)c2ccc(NC(=O)Nc3ccc(Cl)c(Cl)c3)cc2)c1C,54,-3,x,x,x,-2,-0.6,-2.6,-3,-7
O=C(NCc1ccc(F)cc1)C(=O)NCC1OCCN1C(=O)c1ccc(Cl)cc1 (configuration not stated),-11,9,3,6,-2.5,2,0.7,0.1,-4,-1
CCCCn1c(N)c(N(CCC(C)C)C(=O)CCN2C(=O)C3CC=CCC3C2=O)c(=O)[nH]c1=O (configuration not stated),-6,x,19,10,0.7,-4,9.4,-1.5,-12,0
CCOC(=O)C1CCN(c2c(NCCCN(C)C3CCCCC3)c(=O)c2=O)CC1,-3,-18,4,2,-1.7,2,3.8,0.3,-9,-17
CN(C)c1cccc(NC(=O)c2ccco2)c1,99*,0,2,-1,-2.1,3,8.5,-0.6,2,-6
Cc1nnc(NC(=O)c2cccc(NC(=O)C(C)C)c2)s1,-27,23,x,x,x,-3,-2.8,-0.3,6,3
Cc1cccc(CSc2nc3ccccc3c(=O)n2C)c1,40,x,-6,-16,0.1,45,-6.2,-0.7,-224,x
O=C(c1cccc(S(=O)(=O)N2CCc3ccccc32)c1)N1CCN(CCO)CC1,-3,x,12,19,1.2,-7,-1.4,-1.2,-1,x
Cc1ccc2nc(/C(C#N)=C/c3ccc(-c4ccccc4C(=O)O)o3)[nH]c2c1,61,0,3,-7,2.7,-10,-6.6,0.9,3,10
CN(C)CCCN(Cc1ccc2c(c1)OCO2)C(=O)NC1CCCCC1,-3,-26,4,0,2.7,-14,15,0.0,-10,8
NC(=O)NOCc1c(F)cccc1Cl,0,-21,6,11,2.2,-4,-1.0,1.1,7,-4
Cc1oc(/C=N/NS(=O)(=O)c2ccccc2)cc1Br,23,1,x,x,x,-7,1.8,0.0,-5,-16
Cc1c(C(=O)Nc2ccc(S(=O)(=O)Nc3ncccn3)cc2)oc2ccc(Cl)cc12,1,4,x,x,x,-3,1.7,0.4,20,-5
O=C(CSc1nnc(-c2cccnc2)o1)Nc1ccccn1,1,-1,x,x,x,5,5.8,0.7,-4,-16
Nc1ccc2nn(-c3cc([N+](=O)[O-])ccc3O)nc2c1,-21,26,9,14,-0.2,3,-4.5,-0.4,-5,4
COC(=O)Cc1[nH]c(Cl)nc1C(N)=O,-11,-1,23,0,4.7,-6,4.0,1.2,x,-7
CC(=O)c1cccc(NC(=O)N2CC(C)OC(C)C2)c1 (configuration not stated),-18,-5,10,4,-0.6,-1,4.1,1.4,-1,-3
O=C(Nc1nnc(SCc2cccc3ccccc23)s1)C1COc2ccccc2O1 (configuration not stated),x,3,-15,-8,9.5,-2,0.6,1.3,0,-9
Cc1ccc(Nc2nc(Cl)nc(NC3CCCCC3)n2)cc1,5,10,3,10,-3.1,17,1.3,-0.7,3,40
Cc1cccc(-n2cc(CN3CCCN(C=O)CC3)c(-c3cccc(F)c3)n2)c1,21,0,-18,-20,0.3,-3,-0.9,0.2,-7,14
CCn1c(=O)cc(SCC(=O)Nc2ccc3c(c2)OCO3)c2ccccc21,-2,-12,10,16,-4.5,-1,-0.6,0.5,-5,2
Cc1cccc(CCNC(=O)CCc2nc(-c3ccccc3F)no2)c1,-3,-3,x,x,x,-3,-3.7,-0.8,1,10
CSc1nnc(Cn2c(=O)sc3ccccc32)n1CCc1ccccc1,x,14,-9,-18,3.0,3,-1.4,0.5,-20,23
CC1CCN(CCC(=O)Nc2ccc(Cl)cc2)CC1,2,1,11,-10,-1.3,-3,-3.3,0.0,0,19
CSCC[C@H](NC(=O)Nc1ccc(Oc2ccccc2)cc1)C(=O)O,0,-2,7,11,6.7,5,-1.0,0.3,-2,7
Cc1ccccc1CN(CC(=O)Nc1cccc([N+](=O)[O-])c1)S(=O)(=O)c1ccc(Cl)cc1,1,-11,4,4,2.8,32,2.4,0.2,0,40
COc1cccc(C2/C(=C(/O)c3cnn(-c4ccccc4)c3C)C(=O)C(=O)N2CCN(C)C)c1OC (configuration not stated),-5,0,x,x,x,-6,-7.0,0.6,-3,-5
CCC(=O)CCC(=O)c1ccc2ccccc2c1,-1,-10,x,x,x,-11,-5.4,0.2,-1,-11
CNC(=O)CSc1nc2sccc2c(=O)n1-c1ccccc1,-5,-7,5,17,3.0,9,6.9,-0.2,-6,-6
O=C(OCc1ccc([N+](=O)[O-])cc1)C1CC(=O)N(CCc2ccccc2)C1 (configuration not stated),-2,4,-3,-4,-1.0,1,-2.4,-0.4,-6,-11
CC(Oc1cccc(Cl)c1)C(=O)Nc1ccc(S(=O)(=O)N(C)C2CCN(C)CC2)cc1 (configuration not stated),x,x,-11,-13,-5.2,-2,0.5,0.0,9,x
N#Cc1c(SCC(=O)O)nc(-c2ccccc2)c2c1CCCC2,70,-14,x,x,x,5,-2.3,-0.2,0,15
CSc1ccccc1C(=O)NCCOc1ccccc1C,x,3,2,-5,0.4,-14,x,-0.7,-10,2
COc1ccccc1NC(=O)COC(=O)c1c[nH]c2ccccc12,-1,x,-10,-6,4.5,-3,2.5,0.6,7,x
CCCC(=O)NC(c1ccccc1Cl)c1c(O)ccc2ccccc12 (configuration not stated),-57,11,x,x,x,2,2.1,0.2,-5,20
CCN(CC)CCOC(=O)c1ccc(NC(=O)CNC(=O)C2CCCCC2)cc1,-5,-2,x,x,x,-2,-1.9,-0.3,-3,-11
CN(C)C(=O)c1ccc(Nc2nc(-c3cccs3)nc3ccccc23)cc1,x,1,-15,-45,6.1,1,1.1,0.8,3,8
COc1ccc(CC(=O)NC(C)c2nnc(SCC(=O)c3ccc(Br)cc3)n2C)cc1 (configuration not stated),4,-14,x,x,x,-1,-1.9,0.7,-3,x
NC(=O)C1CCN(CCC(=O)Nc2ccc3c(c2)CCC3)CC1,-12,-7,x,x,x,5,0.6,-0.8,2,-7
CCOc1ccc(NC(=O)NCc2ccccn2)cc1,2,-30,8,10,1.0,-6,2.1,0.4,-11,-7
Cc1csc(NC(=O)c2cnccn2)n1,-14,-9,x,x,x,0,5.4,-2.4,-1,4
O=C(O)c1ccc(COc2ccccc2/C=C2\NC(=O)N(Cc3ccccc3F)C2=O)cc1,3,-2,-7,-11,-0.6,-3,-1.6,2.8,4,-3
O=C(COC(=O)CNC(=O)C12CC3CC(CC(C3)C1)C2)NC1CCS(=O)(=O)C1 (configuration not stated),0,-7,-1,0,0.3,0,0.2,0.1,0,-4
Cc1ccc(NC(=S)N2CCN(C3CCCCC3)CC2)cc1,-4,-15,x,x,x,-8,-0.7,u,7,-4
CCCn1c(=O)c2sccc2n2c(CCCC(=O)NCc3cccnc3)nnc12,-7,18,5,2,2.5,3,-3.6,0.6,2,-17
COCCNC(=O)C1CCN(C(=O)C2CC(=O)N(c3ccc(C)cc3)C2)CC1 (configuration not stated),33,1,10,8,1.6,3,-2.4,-0.7,4,-7

# Single entries from the entries so far:
# Reading for CCC(=O)CCC(=O)c1ccc2ccccc2c1 under LANA-H2A inh: -5.4
# Reading for CCOc1ccc(C(O)c2nccn2C)cc1 (configuration not stated) under T cruzi repl: -1

# Further entries follow:
SMILES,ALR inh,Calb FLC,rRNA inh HTS,rRNA inh HTS OD600,rRNA inh HTS RFP,Beta cell apopt,LANA-H2A inh,A1 inh,B2AR ag,T cruzi repl
Cc1ccc(NC2=CC(=O)CC(c3ccccc3)C2)cc1 (configuration not stated),2,15,x,x,x,7,2.7,0.8,-15,-2
O=C(NCCCn1ccnc1)/C(=C/c1ccco1)NC(=O)c1ccco1,3,-25,x,x,x,-5,-11,-0.1,-6,-2
CC(c1ccccc1)n1cc(C(=O)NCC2COc3ccccc3O2)nn1 (configuration not stated),-1,x,x,x,x,-1,-0.7,-0.8,-9,x
NNC(=O)CNc1ccccc1Cl,7,-9,4,6,1.7,-5,-2.2,-0.7,-1,-4
CC(C)(C)C1CCC(=NNc2nc3ccccc3[nH]2)CC1 (configuration not stated),98*,-3,-23*,-9.0*,2.4*,46,-1.7,1.1,11,-24
CCOc1ccc(CN2CCNC(=O)C2CC(=O)OC)cc1 (configuration not stated),-31,-2,11,9,0.8,-7,2.6,-1.2,-5,-10
